TRPML1 inh: human mucolipin-1 channel inhibition; Q9GZU1; TRPML1-inducible cells, Ca2+ dye fluorescence, FDSS; hits give low values; inhibition of EC80 agonist-evoked calcium signal; activity change, negative = inhibition, % (no concentration beside the values); actives 0.02% (n = 390,000); AID 624415; in the data active means activity change below about -50%; inconclusive means about -30% to -50%; inactive means above about -30%;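 further: stimulus is agonist 54-4 at its EC80 concentration; on the % scale 0 is the no-effect control and ±100 the full control effect; compound concentration not given in the record; the text of the record puts the active cut at -80%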
Target sequence (Q9GZU1 whole entry, looked up): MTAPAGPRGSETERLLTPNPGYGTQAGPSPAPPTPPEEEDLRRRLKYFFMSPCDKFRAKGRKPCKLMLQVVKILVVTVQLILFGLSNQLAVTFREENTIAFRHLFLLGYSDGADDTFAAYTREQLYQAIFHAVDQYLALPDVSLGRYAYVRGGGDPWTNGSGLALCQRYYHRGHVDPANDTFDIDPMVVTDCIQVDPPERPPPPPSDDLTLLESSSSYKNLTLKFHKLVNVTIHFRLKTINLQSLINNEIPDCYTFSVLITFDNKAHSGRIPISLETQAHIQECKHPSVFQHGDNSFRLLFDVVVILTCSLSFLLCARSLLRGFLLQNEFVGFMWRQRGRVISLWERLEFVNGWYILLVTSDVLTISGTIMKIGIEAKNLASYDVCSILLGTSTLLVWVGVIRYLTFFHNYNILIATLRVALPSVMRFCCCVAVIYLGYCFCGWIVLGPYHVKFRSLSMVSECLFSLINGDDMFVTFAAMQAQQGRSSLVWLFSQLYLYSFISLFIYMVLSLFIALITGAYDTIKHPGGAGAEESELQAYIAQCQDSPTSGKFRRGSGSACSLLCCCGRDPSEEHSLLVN
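TRPML1-DL cells, Tet-induced overnight (~16 h, 37 °C) at 1,500 cells/well, were loaded with Ca8 no-wash dye plus quencher for 45-90 min at room temperature. Compounds were pinned during FDSS kinetic reading; agonist 54-4 at EC80 (4 uM final) then added.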
gsp antagonist: antagonists of gsp mutant (McCune-Albright syndrome). Potency, µM (series often up to 76.9 µM), for the others: top-dose activity change, negative = inhibition, actives largely listed as inhibitors. actives 0.4% (n = 340,000). gsp-mutant cells, cAMP HTRF, 30 min; control for the full effect not named in the record; active = falling curve of any shape with a large fitted effect; inconclusive = falling curve, mostly with a smaller effect; inactive = flat or rising curve; cell line not stated here;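 further: intracellular cAMP measured with PDE inhibitor Ro 20-1724 present during compound exposure; potency means the concentration at half of the fitted maximal effect; on the % scale 0 is the no-effect control and ±100 the full control effect; nearly all actives have a fitted effect of over 65% in size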
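G418-selected cells were plated in DMEM/10% FBS for 16-24 h at 37C, then treated with compounds plus the PDE inhibitor […] (300 uM solution added) for 30 min at 37C. Intracellular cAMP was measured by HTRF after 30 min lysis at room temperature.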
gsp ag: gsp mutant agonism; gsp mutant cells, cAMP HTRF, 30 min; control for the full effect not named in the record; Potency, µM (doses to about 76.9 µM), inactives show at the top dose activation (cAMP increase), usual class: activators; actives 0.13% (n = 340,000); active = well fitted activation curve with a large enough effect; inconclusive = small, poorly fitted or top-dose-only effect, or another doubt; inactive = no such curve, though single readings can be large or run the other way; cell line not stated here;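 further: phosphodiesterase inhibitor Ro 20-1724 added with compounds to block cAMP breakdown; potency means the concentration at half of the fitted maximal effect; nearly all actives have a fitted effect of over 60% in size; about a fifth of the inactives were tested at one dose only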
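Cells in DMEM/10% FBS with G418 were pretreated with compounds in DMSO plus […] (300 uM stock) for 30 min at 37C. cAMP was measured by HTRF (cAMP-d2 plus anti-cAMP antibody-K) after 30 min at room temperature.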
TRPML1 agonist: activates the human TRPML1 channel; actives 0.12% (n = 410,000); TRPML1-expressing cells, Ca2+ dye fluorescence, FDSS; host cell line not named in the record; reference of the full effect not given here; activation, % (test concentration not listed); Q9GZU1; in the data active = activation above about 50%; inconclusive = about 30% to 50%; inactive = below about 30%; further: 0% is about no effect; the text of the record puts the active cut at 80%
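Tetracycline-induced TRPML1-DL cells are seeded and incubated overnight before loading with a no-wash Ca2+ dye and quencher. Agonist activity is taken from the 110 s fluorescence read following compound pin-transfer on an FDSS, before EC80 54-4 challenge.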
Menin-MLL FL inh: displaces fluorescein MLL peptide from human menin; Fluorescence polarization, fluorescein-MLL peptide displacement from menin; FP activity change, % at 61.4 µM; 290,000 tested, under 10 active; inconclusive = falling polarisation curve, or a change in total fluorescence; inactive = total fluorescence flat and polarisation flat or rising; no compound was filed as active; the % refers to the polarisation; negative = inhibition;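 further: % of control where 0% means no effect; inhibitors lower the polarisation; unlabelled MLL peptide was the positive control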
ClpP mod: qHTS Assay for Activators of ClpP | ATP-dependent Clp protease proteolytic subunit (Bacillus subtilis (strain 168)), P80244 | actives 1.9% (n = 340,000) | purified B. subtilis ClpP, FRET peptide cleavage, 20 min | Potency, µM (top dose mostly 57.5 µM), for the others: at the highest dose activity change, negative = active; active = well fitted falling curve with a large enough effect; inconclusive = small, poorly fitted or top-dose-only effect; inactive = no such curve, though single readings can be large or run the other way; further: potency means the concentration at half of the fitted maximal effect; the source files actives as falling curves though it sought activators and does not explain the sign; nearly all actives have a fitted effect of over 65% in size; many hits overshoot -100%
Target sequence (P80244 whole entry, looked up): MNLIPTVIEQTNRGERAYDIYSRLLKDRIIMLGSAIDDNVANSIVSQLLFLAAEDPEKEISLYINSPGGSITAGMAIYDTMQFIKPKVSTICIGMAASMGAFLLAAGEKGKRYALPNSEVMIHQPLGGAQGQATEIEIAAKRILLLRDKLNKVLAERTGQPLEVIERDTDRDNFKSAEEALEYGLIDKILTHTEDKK
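Buffer: 100 mM Tris/HCl pH8, 100 mM KCl, 0.05% low protease BSA, 2.5% glycerol, 0.01% Tween-20. ClpP 10 microg/mL final; 20 min RT; delta FRET normalized to ADEP and DMSO controls.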
Numbers without * were called inactive; ? = inconclusive; · = no result given; [ ] = dose if it differs, or a comment. No enrichment for hits, and some 2.1% of all compounds hit somewhere here.

SMILES	TRPML1 inh	gsp antagonist	gsp ag	TRPML1 agonist	Menin-MLL FL inh	ClpP mod
CC(=O)c1c(C)[nH]c(C(=O)NC2=NCCS2)c1C	-4	-12%	26%	1.5	2.6	0.8%
CCOC(=O)C(C)(C)N(Cc1ccc(C)cc1)S(=O)(=O)c1ccc(Cl)c([N+](=O)[O-])c1	53	-7%	-1%	1.4	-0.2	-2.3%
O=C(Cn1nnc2ccccc21)c1ccc(Br)cc1	13	0%	-5%[15.4 µM]	1.2	6.6	·
Cc1cc(NC(=O)COc2ccc3ccccc3c2Br)no1	78	4%	?	2.1	·	-2.6%
O=C(OCc1ccccc1F)c1ccc(-c2nnn(Cc3ccccc3)n2)cc1	-18	·	·	1.4	·	-2.5%
Oc1sc(C=Nc2ccc(F)cc2)c2ccccc12	28	-5%	-27%	14	-2.5	-1.4%
CNC(=O)c1ccc(CSc2nc3cccnc3n2Cc2cccc(F)c2)cc1	-8	·	·	0.1	·	4.5%
COc1cccc(OC)c1C(=O)NC(=S)Nc1ccc(S(=O)(=O)Nc2nccs2)cc1	-18	-21%	-4%[15.4 µM]	0.5	-4.1	·
Cc1onc(-c2ccccc2)c1-c1csc(N/N=C/c2ccccc2)n1	8	-11%	-15%	-0.5	-2.9	·
CSc1ncc(Cl)c(C(=O)Nc2cccc(Cl)c2)n1	-6	-15%	-1%	2.7	-7.1	-2.7%
CC(C)C[C@@]12C(=O)N(c3cccc(Br)c3)C(=O)N1[C@H](c1ccc(Cl)cc1)[C@@H]1C(=O)N(C3CCCCC3)C(=O)[C@@H]12	-14	8%	6%	-0.5	·	0.6%
COCCn1c(SCC(=O)Nc2nnc(C)s2)nnc1-c1c[nH]c2ccccc12	-2	-11%	-33%	0.1	1.0	0.6%
O=C(Nc1cccnc1)c1cccc([N+](=O)[O-])c1	17	-3%	17%	0.3	-5.2	-2.0%
O=C(COc1ccccc1)N1CCN(S(=O)(=O)c2cccs2)CC1	-12	-3%	-3%	-0.3	4.7	-5.9%
COc1ccc(NC(=O)C2CCN(c3cc(C)nc(-c4ccccc4)n3)CC2)cc1	-3	-21%	7%	-0.7	0.6	16%
Cc1ccc(-c2nc3cc(NC(=O)c4cc(Br)ccc4Cl)ccc3o2)cc1	5	·	·	1.1	·	?
Cn1nnc(NC(=O)CSc2nnnn2-c2ccc(F)cc2)n1	-12	4%	-19%	-0.1	0.0	-0.8%
O=C(O)c1cc(NC(=O)C2CCCO2)cc(C(=O)O)c1 (centres undefined)	-16	4%	-7%	0.6	0.4	1.9%
COCc1ccc(C(=O)N2CCCC(C(=O)c3ccc(Cl)cc3C)C2)o1 (centres undefined)	0	3%	-118%[inhibitor]	0.9	·	-4.2%
Cc1cc(NC(=O)c2ccccc2-c2ccccc2C(=O)O)no1	-10	-14%	21%	0.3	2.9	-1.9%
COC(=O)CN1C(=O)[C@H]2[C@@H](c3ccc(C)o3)N3C(=O)CN(Cc4ccc(-c5ccccc5)cc4)C(=O)[C@@]3(C)[C@H]2C1=O	-10	8%	·	-0.2	-0.1	0.3%
C/C(=C\C(=O)c1ccc(C)o1)Nc1ccc(C(=O)O)cc1C	-22	-8%	-29%	-0.4	2.2	-3.0%
COc1cccc(-n2cc(C(=O)NCCc3cccc(C)c3)c3ccccc3c2=O)c1	-7	·	·	4.5	·	-18%
Cc1ccc(CNC(=O)Cn2ccn(-c3ccc(F)cc3)c(=O)c2=O)cc1	1	·	·	-0.1	·	-18%
CCCOc1ccc(N2C(=O)CC(N3CCN(CCN=CC4C(=O)CC(C)(C)CC4=O)CC3)C2=O)cc1 (centres undefined)	-15	8%	-13%	0.0	2.1	·
CC(C)c1ccc(S(=O)(=O)N2CCN(C(=O)CCNS(=O)(=O)c3ccccc3F)CC2)cc1	14	-15%	7%	2.3	·	-6.0%
CCOC(=O)C1=C(C)N=c2sc(=C(C)C)c(=O)n2C1c1ccc(N(C)C)cc1 (centres undefined)	-13	-4%	-26%	-0.3	·	-1.9%
CCOc1ccc(-c2nc(C#N)c(NCCCOC)o2)cc1	-2	·	·	-0.8	·	5.1%
Oc1ccc(Br)cc1/C=N/Nc1ncc(-c2ccccc2)cn1	5	5%	-2%[15.4 µM]	0.0	0.4	0.6%
CC1CC(C)CN(C(=O)Cn2cc(C=O)c3ccccc32)C1 (centres undefined)	·	2%	30%	·	-1.0	1.2%
COc1ccc2ccccc2c1/C=N/NC(=O)c1ccc([N+](=O)[O-])cc1	28	13%	-5%[15.4 µM]	-1.8	2.1	1.1%
O=C(CSc1nc2ccccc2o1)NC1CCCC1	-9	-15%	7%[15.4 µM]	-0.8	0.8	·
O=C(NCc1ccccc1)C1C(=O)N(Cc2ccccc2)C(=O)C1C1(O)CCCC1 (centres undefined)	31	-2%	-10%	0.6	-2.8	1.7%
O=C(CSc1nc2nc[nH]c2c(=O)[nH]1)NC1CCCCC1	2	7%	0%	6.1	0.7	-1.4%
Cc1nc2cc(C(F)(F)F)ccc2n1C1CCN(CC(=O)N2CCOCC2)CC1	10	-5%	14%	0.6	-1.6	-1.2%
C[C@H](CO)N1C[C@H](C)[C@H](CN(C)S(=O)(=O)c2ccc(-n3cccn3)cc2)OCc2cnnn2CCCC1=O	23	·	-29%	-0.3	·	0.0%
Cc1ccc(NC(=O)COc2coc(CN3c4ccccc4CC3C)cc2=O)c(C)c1 (centres undefined)	8	-3%	-10%	1.2	·	-1.9%
CCOC(=O)C(Cc1cc(C(C)=O)ccc1OCC)C(=O)OCC	-20	-3%	0%	1.9	1.7	-6.9%
O=C(CN1CCN(c2ccccc2F)CC1)Nc1ccc2c(c1)CCC2	5	8%	5%	0.0	0.9	·
COc1cc(NC(=S)NC(=O)c2ccc(F)cc2)ccc1NC(=O)c1ccco1	2	2%	22%	-0.5	-1.8	-7.2%
CCOC(=O)c1c(NC(=O)COC(=O)CCNS(=O)(=O)c2ccccc2)sc(C(=O)NC)c1C	2	-31%	9%	1.3	·	1.3%
O/N=C/c1ccc2ccccc2n1	47	2%	-1%[15.4 µM]	1.2	5.0	·
NC(=O)CN(c1ccc(Cl)cc1)S(=O)(=O)c1ccccc1	23	5%	8%	-0.5	3.9	-0.5%
Cc1ccc(CN2C(=O)C(CC(C)C)Nc3ncnc(N4CCCCC4)c32)cc1 (centres undefined)	-5	·	·	0.7	·	-1.1%
CSc1nc(Cl)cc(=O)[nH]1	-6	-6%	-2%	0.0	1.2	1.3%
O=C(N/N=C/c1ccsc1)c1cc(-c2cccs2)nc2ccccc12	-8	20%	21%	-0.4	-3.4	-9.4%
COc1ccc2oc(C(=O)NC(C)c3ccccn3)c(C)c2c1 (centres undefined)	4	14%	-3%	0.6	·	25µM*
Cc1cc(C(=O)CSc2nnc(-c3ccco3)o2)c(C)n1CC1COc2ccccc2O1 (centres undefined)	5	-4%	2%	0.6	9.2	-8.4%

Next part; the last 5 above are carried over.
SMILES	TRPML1 inh	gsp antagonist	gsp ag	TRPML1 agonist	Menin-MLL FL inh	ClpP mod
Cc1ccc(CN2C(=O)C(CC(C)C)Nc3ncnc(N4CCCCC4)c32)cc1 (centres undefined)	-5	·	·	0.7	·	-1.1%
CSc1nc(Cl)cc(=O)[nH]1	-6	-6%	-2%	0.0	1.2	1.3%
O=C(N/N=C/c1ccsc1)c1cc(-c2cccs2)nc2ccccc12	-8	20%	21%	-0.4	-3.4	-9.4%
COc1ccc2oc(C(=O)NC(C)c3ccccn3)c(C)c2c1 (centres undefined)	4	14%	-3%	0.6	·	25µM*
Cc1cc(C(=O)CSc2nnc(-c3ccco3)o2)c(C)n1CC1COc2ccccc2O1 (centres undefined)	5	-4%	2%	0.6	9.2	-8.4%
CC1CCCCC1N1CN=C(Nc2nc3ccccc3s2)NC1 (centres undefined)	1	6%	24%	-0.7	4.6	-1.0%
O=C(Cc1ccccc1)N/N=C/c1ccc([N+](=O)[O-])s1	2	11%	-12%	1.7	2.2	-2.0%
CCc1cc(=O)oc2cc(C)cc(OC(C)C(=O)NCc3ccncc3)c12 (centres undefined)	6	6%	6%	0.2	·	·
Cc1ccc(S(=O)(=O)N2CCOCC2)cc1NC(=O)COC(=O)CNC(=O)c1ccc(Oc2ccccc2)cc1	0	-6%	?	1.3	4.8	-1.9%
C[C@]12c3[nH]c4cc(-c5ccco5)ccc4c3CCN1C(=O)[C@@H](CC(=O)NCc1cccc(C(F)(F)F)c1)C[C@@H]2C(=O)N1CCOCC1	10	-20%	·	-0.9	·	3.9%
O=C(COC(=O)/C=C/c1ccccc1[N+](=O)[O-])NC(=O)NC1CCCC1	8	-13%	5%[15.4 µM]	0.6	·	0.7%
COc1ccc(-c2cc(=O)oc3c(C)c(OCC(=O)NCC4CCC(C(=O)O)CC4)ccc23)cc1 (centres undefined)	11	?	-87%[inhibitor]	0.5	-0.4	-25%
COc1ccc(S(=O)(=O)N(C)C)cc1NC(=O)CSc1ncccn1	-15	-4%	-15%[15.4 µM]	-0.1	-1.4	·
CC(C)C(=O)NS(=O)(=O)c1ccc(NS(C)(=O)=O)cc1	6	13%	-26%	0.2	0.3	0.3%
COc1ccc(NC(=O)c2ccc3c(c2)OCO3)cc1S(=O)(=O)N1CCOCC1	-26	-29%	-31%[inhibitor]	1.0	·	0.9%
CC(CN1CCN(C)CC1)OC(=O)c1ccccc1 (centres undefined)	9	12%	?	0.2	5.1	0.3%
CC(C)(C)c1ccc(NC(=O)C2=CN3CCS(=O)(=O)N=C3C=C2)cc1	3	7%	-19%	1.5	·	-7.2%
COc1ccc(C(=O)/C=C/c2cccc(OCc3ccccc3)c2)cc1CSCC(=O)O	18	?	16%	1.3	-7.8	2.4%
NC(=O)N1CC(O)CC1C(=O)Nc1ccc(Cl)c(Cl)c1 (centres undefined)	0	3%	-61%[inhibitor]	-0.4	-0.4	-1.0%
COc1ccc(-n2cc(C(=O)NCCc3ccc(C)cc3)c3ccccc3c2=O)cc1	1	·	·	4.1	·	-23%
CSCC[C@H](NC(=O)N1CCn2c1nc1ccccc12)C(=O)NCc1ccc(F)cc1	-7	6%	25%	0.2	·	-1.1%
COc1ccc(C(=O)Nc2cccnc2Sc2ccc(Cl)cc2)cc1	-20	-16%	1%[15.4 µM]	1.7	-1.8	-6.5%
COc1ccc(C(=O)Oc2cc(-c3ccc(OC)c(OC)c3)cc(=O)c3c(C)oc(C)c23)cc1	-4	·	·	1.6	·	0.1%

Shown with values under each structure: 2 of the compounds above.
Sequence of screens – TRPML1 inh, gsp antagonist, gsp ag, TRPML1 agonist, Menin-MLL FL inh, ClpP mod
COc1ccc(C(=O)Nc2cccnc2Sc2ccc(Cl)cc2)cc1
  -20, -16%, 1%[15.4 µM], 1.7, -1.8, -6.5%
COc1ccc(C(=O)Oc2cc(-c3ccc(OC)c(OC)c3)cc(=O)c3c(C)oc(C)c23)cc1
  -4, ·, ·, 1.6, ·, 0.1%

Screening results (PubChem)
